# HPGD block = qHTS Assay for Inhibitors of HPGD (15-Hydroxyprostaglandin Dehydrogenase) | actives 4.3% (n = 150,000) | purified HPGD, NADH fluorescence kinetic, PGE2 substrate | Potency, µM, inactives show top-dose activity change, negative = inhibition, actives largely listed as inhibitors | 15-hydroxyprostaglandin dehydrogenase [NAD(+)] (Homo sapiens), P15428 | AID 894, 2007; active = well fitted inhibition curve with a large enough effect (not every such curve was filed as active); inconclusive = small, poorly fitted or top-dose-only effect, or another doubt; inactive = no such curve, though single readings can be large or run the other way;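 note: top concentration of the series not given in the record; plate controls included wells without enzyme; inactives centre near -10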
# Target sequence (P15428 whole entry, looked up): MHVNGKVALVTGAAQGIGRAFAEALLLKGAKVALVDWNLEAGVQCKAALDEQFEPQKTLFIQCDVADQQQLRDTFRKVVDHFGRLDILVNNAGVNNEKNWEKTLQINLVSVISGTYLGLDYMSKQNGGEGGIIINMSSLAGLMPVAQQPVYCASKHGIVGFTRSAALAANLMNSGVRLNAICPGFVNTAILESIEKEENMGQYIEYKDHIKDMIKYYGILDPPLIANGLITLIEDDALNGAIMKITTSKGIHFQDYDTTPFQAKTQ
#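 NADH formation kinetics: reaction with 30 uM PGE2 and 1 mM NAD+ (final), 20 nM enzyme, Tris-HCl pH 8 with Tween 20, after 15 min compound preincubation at room temperature. Fluorescence change, last versus first of five reads.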
# * = called active by the depositor; u = inconclusive; & = joins results of further samples. % is set by controls: 0 for no effect and ±100 for the full control effect; potency is the fitted concentration of half-maximal effect. Only part of the results is shown; count on the stated rates, not on these rows.
no.	HPGD block	smiles
1	-6%&-17%&-4%&-7%&-7%	NS(=O)(=O)c1cc2c(cc1Cl)NC=NS2(=O)=O
2	-22%	CCN(c1cccc(C)c1)S(=O)(=O)c1ccc2c3c(cccc13)C(=O)N2
3	-3%	O=C(Nc1ccc2c(c1)OCO2)c1c(F)c(F)c(F)c(F)c1F
4	-1%	COc1ccc(C(O)P(=O)(OCC(C)C)OCC(C)C)c(OC)c1 (configuration not stated)
5	-18%	CCOC(=O)c1ccoc1CSCc1ccc(C(=O)OC)o1
6	13µM*	O=c1[nH]c(NCc2ccccc2)nc2c1CCCC2
7	-24%	O=C(O)CSCC(=O)c1ccccc1
8	-7%	CCSc1nnc(NC(=O)CSc2nc3c(c(=O)n2-c2ccccc2OC)SCC3)s1
9	-10%	Cc1cc(/C=C(\C#N)C(=O)O)c(C)n1C1CC1
10	-14%	OC(COc1ccc2ccccc2c1)CN1CCN(c2ccc(F)cc2)CC1 (configuration not stated)
11	u	COc1cc(/C=N/N=C2/NC(=O)C(CC(=O)O)S2)ccc1OCc1ccc(Cl)cc1 (configuration not stated)
12	-9%	COC(=O)C1CCN(C(=O)c2c(-c3ccccc3Cl)noc2C)CC1
13	2%	COC(=O)c1ccccc1NC(=O)CN1CCOCC1
14	-5%	C[C@H](NC(=O)N1CCc2nc(-c3ccccc3)c3c(c2C1)CO[C@@H](C)C3)c1ccccc1
15	-29%	Cc1ccccc1N1C(=O)CC(Sc2nnc(-c3ccccc3)o2)C1=O (configuration not stated)
16	14µM*	COc1ccc(OC)c(-c2c3cc(O)c(=O)cc-3oc3cc(O)c(O)cc23)c1
17	-11%	Nc1ccc(O)cc1
18	-13%	Cc1ccc(NC(=O)C2CC(=O)n3ncnc3N2)cc1 (configuration not stated)
19	-2%	O=C(COC(=O)c1ccccn1)Nc1cccc(Cl)c1
20	-16%	Cc1cc(-n2c(C)cc(C(=O)CSc3nnnn3-c3ccc(Cl)cc3)c2C)no1

# Gathered by group: those above with two or more sulfur atoms.
no.	HPGD block	smiles
1	-6%&-17%&-4%&-7%&-7%	NS(=O)(=O)c1cc2c(cc1Cl)NC=NS2(=O)=O
8	-7%	CCSc1nnc(NC(=O)CSc2nc3c(c(=O)n2-c2ccccc2OC)SCC3)s1

# Exported with each value named: part of the list above.
18: Cc1ccc(NC(=O)C2CC(=O)n3ncnc3N2)cc1 (configuration not stated)
  HPGD block: -13%
19: O=C(COC(=O)c1ccccn1)Nc1cccc(Cl)c1
  HPGD block: -2%
20: Cc1cc(-n2c(C)cc(C(=O)CSc3nnnn3-c3ccc(Cl)cc3)c2C)no1
  HPGD block: -16%

# The list continues:
no.	HPGD block	smiles
21	u	Cc1ccc2[nH]c3c(c2c1)CN(C(=O)CN1c2ccc(F)cc2CCC1C)CC3 (configuration not stated)
22	-14%	O=C(CSc1ccccn1)N/N=C/c1cccc([N+](=O)[O-])c1
23	-14%	COc1ccc(NC(=O)COC(=O)c2cc(SC)ccc2Cl)c(OC)c1
24	-5%	O=c1oc2cc(O)ccc2c2ccccc12
25	-10%	O=C(O)CCSCc1ccccc1
26	2%	[O-][n+]1ccc(C2CC2)cc1
27	-11%	CCOC(=O)c1cc(-c2ccc(N3CCOCC3)cc2)nn1-c1ccc(F)cc1F
28	-1%	CCCCOC(=O)/C(=C/c1cn(C)c2ccccc12)NC(=O)c1ccc(OC)cc1
29	9%	Cc1n[nH]c(C)c1N=Nc1cc(Cl)ccc1Cl
30	u	Cc1c(CC(=O)O)c(=O)oc2cc(OCc3nn[nH]n3)ccc12
31	-14%	O=C(O)c1ccc(CSc2nc(-c3ccccc3)cc(C(F)(F)F)n2)cc1

# Reprinted at random: 3 entries already listed
no.	HPGD block	smiles
4	-1%	COc1ccc(C(O)P(=O)(OCC(C)C)OCC(C)C)c(OC)c1 (configuration not stated)
29	9%	Cc1n[nH]c(C)c1N=Nc1cc(Cl)ccc1Cl
10	-14%	OC(COc1ccc2ccccc2c1)CN1CCN(c2ccc(F)cc2)CC1 (configuration not stated)

# With a hit mark in HPGD block (from the list above):
no.	HPGD block	smiles
6	13µM*	O=c1[nH]c(NCc2ccccc2)nc2c1CCCC2
16	14µM*	COc1ccc(OC)c(-c2c3cc(O)c(=O)cc-3oc3cc(O)c(O)cc23)c1
